Screens as filed in PubChem.
Ecoli growth = blocks Escherichia coli growth; OD600, 23 h; active compounds read low; OD600 absorbance (test concentration not listed); 0.21% of 330,000 active; AID 1053175;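 active means OD600 absorbance below the run mean of sample wells minus 3.6 SD, in any replicate, cut at about 0.56 in these data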;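 further: stock transfer was 300 nL into about 60 µL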
Vif TR-FRET = HIV-1 Vif–A3G interaction blockers – biochemical, TR-FRET, GST-Vif 1-94, biotin-A3G peptide, dose response retest, primary screen (AID 1117319) | TR-FRET GST-Vif / biotin-A3G peptide binding; higher % means a stronger effect; test concentration not given here; strong numbers were not always called active | inhibition, %, or IC50 in µM where a hit was titrated | 0.57% of 260,000 active;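 active means above the screen mean plus three standard deviations and confirmed in dose response; inconclusive means results disagree or hit not tested in dose response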;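 further: Vif residues 1-94 fused to GST binding biotinylated APOBEC3G peptide 110-148; 0% = full assay without inhibitor and 100% = GST in place of GST-Vif; retest series ran down from 100 µM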
B2AR ag = activates human beta-2 adrenergic receptor causing internalization; AID 504454; response, % (concentration not given with the values); Am2.2-beta2AR cells, FAP receptor internalization, flow cytometry; reference of the scale not given here; 0.43% of 340,000 active;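 active means response above a set limit, near 3 SD of response in nonfluorescent compounds, cut at about 42% in these data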;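 further: stock transfer was 100 nL into about 11 µL; a reference agonist was the positive control; negative values mostly stem from fluorescent compounds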
Target sequence (P07550 whole entry, looked up): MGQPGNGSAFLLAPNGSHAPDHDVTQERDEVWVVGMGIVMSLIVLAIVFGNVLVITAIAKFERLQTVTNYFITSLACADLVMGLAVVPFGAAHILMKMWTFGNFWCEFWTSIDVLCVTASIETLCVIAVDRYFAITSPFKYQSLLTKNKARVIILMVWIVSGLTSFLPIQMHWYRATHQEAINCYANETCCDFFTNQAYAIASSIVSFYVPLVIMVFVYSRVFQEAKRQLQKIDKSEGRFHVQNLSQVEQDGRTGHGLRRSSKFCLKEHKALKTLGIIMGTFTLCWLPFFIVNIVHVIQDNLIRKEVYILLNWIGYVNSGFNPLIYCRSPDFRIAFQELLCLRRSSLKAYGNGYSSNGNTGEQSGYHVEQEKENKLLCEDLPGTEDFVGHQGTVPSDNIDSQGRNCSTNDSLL
LANA-H2A inh = blocks KSHV LANA binding to histone H2A/H2B; 0.6% of 320,000 active; Q9QR71; AID 2629; inhibition, % (test concentration not listed); cell-free LANA-H2A/H2B peptide, fluorescence polarization; in the data active means inhibition mostly above about 10%, no sharp cut-off; inactive means mostly below about 6.7%;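 further: stock transfer was 7.5 nL into about 10 µL; 0% = median of vehicle wells and 100% = median of positive control wells; one replicate is shown; the record names a cut of 25% in any replicate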
HNF4A DNA FP = change in binding of human HNF4 alpha to DNA | P41235 | HNF4a-FITC DNA binding, fluorescence polarization, 1 h | activity change, % at 10 µM | 0.3% of 360,000 active | AID 1224865; in the data active means activity change above about 30%, passing the limit was not always enough;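 further: controls were the assay level and a saturating level of protein; the project sought stronger binding though the title names inhibitors; some compounds called inactive have numbers as strong as hits; positive values seem to mean higher polarization but the record does not say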
Bfl-1 A1 inh = inhibitors of the anti-apoptotic protein A1, read as caspase activation. caspase activation, % (test concentration not listed). 0.066% of 330,000 active. MEF A1-2A-BIM cells, Caspase-Glo 3/7 luminescence, 3 h; percent of clofoctol response, vehicle zero;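 active means over half of replicate activation scores above 10%, or exactly half above 10 with the replicate mean above 10; inconclusive means replicate mean below 10 yet half the replicates above 10; inactive means over half of replicates below 10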;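 further: wells of about 30 µL received 50 nL stock; many hits fall short of the cut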
UCH37 DUB inh = human UCH37 deubiquitinating enzyme inhibition; Q9Y5K5; purified proteasome/UCH37, Ub-AMC cleavage fluorescence; inhibition, % (concentration not given with the values); 0.33% of 330,000 active; AID 588478;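 active means mean of two replicates above 20%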;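 further: 0% = compound-free wells with enzyme and 100% = wells lacking proteasome; stock transfer was 100 nL into about 20 µL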
Target sequence (Q9Y5K5 whole entry, looked up): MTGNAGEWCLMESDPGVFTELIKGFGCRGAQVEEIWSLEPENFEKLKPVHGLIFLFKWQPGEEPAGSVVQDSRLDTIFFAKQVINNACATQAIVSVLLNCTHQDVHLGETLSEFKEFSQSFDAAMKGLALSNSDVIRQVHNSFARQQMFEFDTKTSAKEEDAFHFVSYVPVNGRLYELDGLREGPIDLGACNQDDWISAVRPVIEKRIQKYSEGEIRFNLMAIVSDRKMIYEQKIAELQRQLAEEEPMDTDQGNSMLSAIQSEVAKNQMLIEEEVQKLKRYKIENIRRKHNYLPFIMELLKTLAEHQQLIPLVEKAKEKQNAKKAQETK
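Material: Human UCH37 enzyme supplied as purified proteasome complex | Schedule: 30 min compound-proteasome preincubation then 25 min substrate reaction, room temperature | Detection: AMC fluorescence from Ub-AMC cleavage, excitation 355 nm, emission 460 nm | Benchmarks: Wells without proteasome as full block, compound-free enzyme plus substrate as uninhibited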
Active calls of the source: *; i = inactive; u = inconclusive; x = not tested or not shown; & = joins results of further samples.

SMILES | Ecoli growth | Vif TR-FRET | B2AR ag | LANA-H2A inh | HNF4A DNA FP | Bfl-1 A1 inh | UCH37 DUB inh
CC(C)CN(C(=O)c1ccc(-n2cncn2)c([N+](=O)[O-])c1)C1CCS(=O)(=O)C1 (stereo not given) | 0.69 | 0% | -9 | 3.5 | -4.0 | -0.7 | 4.3
COCCCNC(=O)COc1ccc(Br)cc1Cl | 0.72 | 12% | -1 | -1.5 | -0.7 | 0.3 | -2.3
Fc1ccc(C(c2nnnn2Cc2ccccc2)N2CCSCC2)cc1 (stereo not given) | 0.7 | -3% | 4 | 4.3 | 1.2 | -0.1 | -1.6
O=C(O)CCCCC1CCSS1 (stereo not given) | x | 7.7µM* | 9 | -2.7 | 2.8 | 0.8 | x
COc1ccc(-c2ccc(SCC(=O)NC3CCCCC3)nn2)cc1 | x | x | 5 | -3.7 | -0.8 | -0.4 | x
CCOC(=O)C1=C(C)N(C)C(=O)NC1c1c(C)nn(-c2ccc(C)cc2)c1Cl (stereo not given) | 0.66 | 7% | 2 | 2.9 | -1.1 | 0.2 | -0.7
S=C1NCCOCCOCCOCCN1 | 0.77 | 11% | 4 | -2.9 | 0.1 | 0.3 | 2.2
NC(=O)C1CCN(CC(=O)Nc2cccc(C(=O)Nc3cccc(C(F)(F)F)c3)c2)CC1 | 0.68 | x | 4 | -4.9 | -1.9 | -0.9 | 1.3
Cc1ccccc1NC(=O)CN(C)S(=O)(=O)c1ccc2c(c1)n(C)c(=O)c(=O)n2C | 0.65 | 4% | -2 | -2.5 | 15 | 1.1 | -10
Cc1ccc(-c2noc(CCC(=O)NCCN3CCc4ccccc4C3)n2)cc1 | 0.68 | u | 1 | -2.7 | -0.1 | 0.3 | -1.3
C/C(=N/NS(=O)(=O)c1ccccc1)c1ccc(NC(=O)C(F)(F)F)cc1 | x | 28% | 5 | x | 2.2 | 1.1 | x
Fc1ccc(-c2nc3c(-c4ccc(Cl)cc4)cnn3cc2CCN2CCOCC2)cc1 | 0.72 | -1% | -2 | 0.5 | 2.2 | 0.4 | 0.8
O=C(NCCN1CCOCC1)c1cccc(S(=O)(=O)NCc2ccccc2)c1 | 0.63 | 0% | -12 | -2.0 | 2.0 | 0.2 | -0.2
CCOc1ccc(NC(=O)CSc2nnc(Cn3cnc([N+](=O)[O-])n3)n2C)cc1 | 0.69 | 1% | -2 | x | 0.7 | 0.7 | -0.5
CCCCN(C)CCNC(=O)c1ccc2c(c1)NC(=O)C(N1CCCCC1)S2 (stereo not given) | 0.73 | -2% | 6 | 2.2 | 1.1 | 0.2 | -0.6
Cc1ccc(NC(=O)CN2C(=O)S/C(=C\c3cc(Cl)c(OCC(=O)O)c(Cl)c3)C2=O)cc1 | 0.69 | x | 7 | 2.0 | -6.0 | 0.3 | 18
COc1ccc(S(=O)(=O)N(C)C[C@H]2Oc3c(NC(=O)C4CC4)cccc3C(=O)N([C@H](C)CO)C[C@@H]2C)cc1 | 0.75 | x | -3 | 0.7 | 0.8 | -1.5 | 3.4
COc1ccc(C(CNC(=O)c2ccc(NS(=O)(=O)c3ccc4c(c3)OCCO4)cc2)N(C)C)cc1 (stereo not given) | 0.64 | 5% | 5 | -0.8 | -1.7 | 0.1 | 2.6
O=C(N/N=C/c1ccc([N+](=O)[O-])o1)c1ccc(NS(=O)(=O)c2cccs2)cc1 | x | 23% | 11 | -4.5 | -0.8 | -0.5 | x
CCCCNC(=O)CSc1nc2cc3c(cc2c(=O)n1CCCN(CC)CC)OCO3 | 0.73 | 4% | 9 | -1.7 | -1.5 | 1.3 | 2.4
Cc1nn(C)c(C)c1NC(=O)COc1ccc(Cl)cc1 | 0.65 | -1% | -2 | -0.4 | 3.2 | 0.4 | -0.7
CC1=NN(Cc2ccccc2)C(=O)/C1=C\c1ccc(N(C)C)cc1 | 0.75 | -3% | 12 | 11 | -0.6 | -0.3 | 0.9
Cc1ccc(NCC2(N=Cc3ccccc3)OC(CO)C(O)C2O)cc1 (stereo not given) | 0.66 | -13% | -17 | x | 5.9 | x | 3.0
Cc1ccc(-c2nnc3n2N=C(c2ccccc2)CS3)cc1 | 0.76 | 11% | -14 | -2.4 | -1.2 | -0.2 | 1.5
O=C(O)CN1C(=O)/C(=C\c2cc(Br)ccc2OCc2ccc(Cl)cc2Cl)SC1=S | x | -7% | 3 | -4.4 | -22 | -0.1 | x
Cc1ccc(C)c(OCC(=O)Nc2ccc(N3CCOCC3)cc2)c1 | 0.68 | x | -4 | -3.7 | 0.1 | -0.6 | 3.4
C[C@@H](NC(=O)c1[nH]cnc1C(=O)Nc1ccon1)c1ccccc1 | x | x | -13 | 5.7 | -2.3 | 0.6 | -0.8
Nc1ncnc2c1ncn2[C@@H]1O[C@H](CN2CCCS2(=O)=O)[C@@H](O)[C@H]1O | 0.72 | 0% | -12 | -1.8 | -2.7 | 0.8 | 0.9
COc1ccc(/C=N\NC(=O)COc2ccccc2)c(C(=O)O)c1OC | x | x | 1 | 0.4 | 1.8 | -0.5 | x
N#Cc1c(Nc2ccccc2)s[nH]c1=O | 0.65 | -7% | 6 | -2.7 | 2.6 | -0.6 | 1.4
O=C(c1cccnc1)N(Cc1ccccc1)C1(C(=O)Nc2ccccc2)CCCCC1 | 0.7 | x | -6 | 4.5 | 0.5 | -0.2 | 2.1
O=C(c1ccc2c(c1)OCO2)N1CCNc2ccccc2C1 | 0.72 | 7% | 3 | 2.8 | -0.3 | 0.9 | 0.6
CCCOc1ccc(N2C(=O)CC(N3CCN(C(=O)c4ccco4)CC3)C2=O)cc1 (stereo not given) | 0.69 | u | -2 | 5.7 | 3.5 | 0.2 | 4.7
CCOC(=O)C(=O)Nc1nnc(C2CCCCC2)s1 | 0.7 | -3% | 9 | 0.9 | 0.7 | 0.1 | 1.5
CCOc1ccccc1C1NC(=O)NC(C)=C1C(=O)OCc1ccccc1 (stereo not given) | 0.68 | -5% | -4 | 0.3 | 0.7 | 0.4 | 5.5
CC(C)NS(=O)(=O)c1cc(F)ccc1CN1C(=O)c2cccnc2C1=O | 0.62 | 3% | -5 | -4.0 | -0.5 | 1.6 | 0.7
COc1ccccc1/C=N/NC(=O)C1=NNC(c2ccccc2)(c2ccccc2)C1 | x | 1% | x | 2.1 | x | 0.1 | x
O=C(COC(=O)c1cnccn1)c1cccc([N+](=O)[O-])c1 | 0.69 | -4% | -4 | 3.8 | 0.9 | -0.5 | 5.5
CCOC(=O)Nc1nn(-c2ccc(C)cc2)c(=O)c(C#N)c1C | 0.68 | -5% | -16 | -2.7 | -0.3 | 0.8 | 2.7
COc1ccc2nc(C)cc(SCC(=O)N3CCCCC3)c2c1 | 0.68 | 15% | -48 | 3.1 | 3.1 | 0.0 | -1.3
COc1cc(C#Cc2c(-c3cncn3C)n(C)c3ccc(-c4ccc(CN5CCOCC5)cc4)cc23)cc(OC)c1 | 0.7 | x | 23 | 2.6 | 9.2 | -0.4 | -8.5
CC(=O)c1cn(CC(=O)Nc2ccccc2Cl)c2ccccc12 | 0.71 | -3% | -4 | -0.5 | 0.7 | -0.1 | 0.8
CCCNc1cc(C)oc(=O)c1C(=O)CC | 0.68 | 2% | 11 | -0.3 | 0.3 | 0.8 | 2.2
CC(C)NC(=O)COc1ncnc2sccc12 | 0.68 | u | -1 | -6.2 | -0.3 | 0.1 | -1.1
Cc1nc2ccc(NC(=O)Cc3ccccc3F)cc2s1 | 0.65 | 13% | -6 | 3.9 | 3.2 | -4.1 | -2.0
CC(CCc1ccccc1)NC(=O)Cc1cccs1 (stereo not given) | 0.7 | 7% | 19 | -2.8 | 6.7 | 0.0 | 3.6
OC1(c2ccc(Br)cc2)CCNCC1 | 0.71 | 0% | 6 | -0.5 | 5.0 | 0.2 | 0.2
COc1ccc(NC(=O)CN(C)S(=O)(=O)c2ccc(C)cc2)c([N+](=O)[O-])c1 | 0.72 | u | 2 | -11 | 59* | -0.2 | 3.0
C=CCn1c(SCC(=O)N2CCCC2)nc2cc(C(=O)NCC3CCCO3)ccc2c1=O (stereo not given) | 0.69 | 2%&4% | 3 | 0.3 | 4.5 | -1.0 | -4.5
CCc1ccccc1NC(=O)NC1CC2CCC(C1)N2Cc1ccco1 (stereo not given) | 0.68 | 4% | -4 | -1.8 | 3.7 | 1.0 | -1.3
O=C1CCC(/C=C/c2ccccc2)=NN1Cc1ccccc1 | 0.69 | 1% | 13 | -4.7 | 2.7 | -1.0 | 3.2
OCC[C@H]1C[C@@H](O)[C@H](O)[C@]2(CCCc3ccccc3O2)O1 | x | x | -1 | 2.0 | 0.4 | -1.1 | 5.8
CCCCCn1cnnc1SCC(=O)c1c(N)n(C2CC2)c(=O)[nH]c1=O | 0.66 | -3% | -8 | x | 7.0 | x | 2.4
Cc1cccc(-c2ccc3c(c2)C2CC3CCN2Cc2ccc3c(c2)OCO3)c1 (stereo not given) | x | 0% | -3 | x | 0.0 | x | x
Nc1nc(-c2c[nH]c3ccccc23)cs1 | 0.66 | 16% | -9 | -8.1 | 6.0 | 0.4 | 1.6
COc1ccc(C(=O)O)cc1S(=O)(=O)Nc1ccc(N2CCCCC2)cc1 | 0.73 | -7% | -6 | -0.5 | 2.0 | 0.4 | 2.1
Clc1nccc(N2CCN(c3ccccc3Cl)CC2)n1 | 0.63 | x | -3 | 1.3 | 3.7 | 0.2 | 2.3
CN(C)CCOc1ccc(C(C)(C)c2ccccc2)cc1 | x | -13% | -3 | 6.3 | 2.0 | -0.1 | x
COc1ccc(N2CCN(C(=O)CSc3nc(C)cs3)CC2)cc1 | 0.65 | 8% | -3 | 1.0 | -0.1 | -0.1 | 5.3
CNC[C@@H]1Oc2ccc(NS(=O)(=O)c3ccc(OC)cc3)cc2CC(=O)N([C@H](C)CO)C[C@@H]1C | x | x | -2 | 1.5 | 9.2 | 0.3 | 1.9
Additional structures follow:
SMILES | Ecoli growth | Vif TR-FRET | B2AR ag | LANA-H2A inh | HNF4A DNA FP | Bfl-1 A1 inh | UCH37 DUB inh
Cc1nnc(SCCOc2ccccc2)s1 | 0.68 | 28% | 1 | -2.6 | 0.6 | 1.1 | 5.5
COc1nc(N)c(S(=O)(=O)c2ccccc2)cc1C#N | 0.71 | 1% | 3 | -3.6 | 16 | 0.6 | -4.7
CCc1cc(=O)oc2cc(OC(C)C(=O)NCC3CCC(C(=O)O)CC3)c(Cl)cc12 (stereo not given) | 0.74 | x | 1 | 2.2 | -1.9 | 0.3 | -7.3
Cc1ccccc1CSc1ccc2nnc(-c3ccccn3)n2n1 | 0.71 | -16% | i | 0.3 | -0.2 | 0.4 | 2.8
Cc1cc(C)cc(NC(=O)CCc2c(C)nn(-c3ccc(N4CCOCC4)nn3)c2C)c1 | 0.7 | -7% | -9 | 1.0 | 3.6 | -1.4 | 4.8
COc1ccc(S(=O)(=O)Nc2cccc3c2O[C@H](CN(C)S(=O)(=O)c2cccs2)[C@@H](C)CN([C@H](C)CO)C3=O)cc1 | 0.76 | x | -15 | -7.1 | -0.4 | 0.0 | 6.9

Looked up by structure from the entries so far (2):
SMILES | Ecoli growth | Vif TR-FRET | B2AR ag | LANA-H2A inh | HNF4A DNA FP | Bfl-1 A1 inh | UCH37 DUB inh
Cc1ccccc1CSc1ccc2nnc(-c3ccccn3)n2n1 | 0.71 | -16% | i | 0.3 | -0.2 | 0.4 | 2.8
Cc1nnc(SCCOc2ccccc2)s1 | 0.68 | 28% | 1 | -2.6 | 0.6 | 1.1 | 5.5

Limited to UCH37 DUB inh, Bfl-1 A1 inh and B2AR ag (two entries from above):
SMILES | UCH37 DUB inh | Bfl-1 A1 inh | B2AR ag
Cc1ccccc1CSc1ccc2nnc(-c3ccccn3)n2n1 | 2.8 | 0.4 | i
Cc1cc(C)cc(NC(=O)CCc2c(C)nn(-c3ccc(N4CCOCC4)nn3)c2C)c1 | 4.8 | -1.4 | -9

No enrichment for hits. Share with any hit: about 2.1%.
